Screens: PubChem, National Center for Advancing Translational Sciences (NCATS)
TRPV1 PAM – enhances activation of the human vanilloid receptor TRPV1. Q8NER1. TRPV1-expressing cells, Fluo-8 calcium influx, capsaicin EC20 potentiation; host cell line not named in the record; control for the full effect not named in the record. potentiation, % at 8.33 µM. 320,000 compounds, 0.02% hits; active means potentiation above 80%; inconclusive means 30% to 80%; inactive means below 30%; note: 0% is about no effect
Target sequence (Q8NER1 whole entry, looked up): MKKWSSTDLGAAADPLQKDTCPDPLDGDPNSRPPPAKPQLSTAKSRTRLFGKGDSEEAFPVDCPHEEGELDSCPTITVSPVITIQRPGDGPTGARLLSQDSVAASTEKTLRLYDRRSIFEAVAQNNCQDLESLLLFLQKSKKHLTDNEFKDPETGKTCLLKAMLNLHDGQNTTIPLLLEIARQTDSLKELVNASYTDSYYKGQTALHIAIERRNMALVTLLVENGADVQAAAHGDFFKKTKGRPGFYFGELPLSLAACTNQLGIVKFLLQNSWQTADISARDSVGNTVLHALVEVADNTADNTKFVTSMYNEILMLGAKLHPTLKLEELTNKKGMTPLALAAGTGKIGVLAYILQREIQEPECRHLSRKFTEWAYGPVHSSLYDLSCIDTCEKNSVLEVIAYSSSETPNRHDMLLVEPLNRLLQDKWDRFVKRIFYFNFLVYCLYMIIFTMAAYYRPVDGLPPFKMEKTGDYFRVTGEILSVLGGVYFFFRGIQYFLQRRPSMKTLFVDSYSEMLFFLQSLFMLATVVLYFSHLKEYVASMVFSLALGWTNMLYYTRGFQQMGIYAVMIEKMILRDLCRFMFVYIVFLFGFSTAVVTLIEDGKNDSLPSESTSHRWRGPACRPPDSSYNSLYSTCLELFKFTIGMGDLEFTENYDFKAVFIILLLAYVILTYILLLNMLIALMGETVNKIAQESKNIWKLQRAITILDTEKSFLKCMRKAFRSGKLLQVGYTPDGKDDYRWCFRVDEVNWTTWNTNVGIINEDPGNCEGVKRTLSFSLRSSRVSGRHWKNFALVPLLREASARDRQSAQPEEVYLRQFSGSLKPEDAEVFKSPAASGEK
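Cells expressing TRPV1 were dye-loaded with Fluo-8 and read kinetically: 10 s baseline, 3 min after compound (agonist portion), then 2 min after EC20 capsaicin (allosteric enhancer portion). Calcium-bound dye fluorescence at 480/520 nm.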
Sfp inh – inhibitors of Bacillus subtilis Sfp phosphopantetheinyl transferase; 310,000 compounds, 3.5% hits; Potency, µM, for the others: max response, negative = inhibition, hits mostly inhibitors; Biochemical Sfp PPTase activity, qHTS; AID 1490; Q9F4F7; active = well fitted inhibition curve with a large enough effect; inconclusive = small, poorly fitted or top-dose-only effect, or another doubt; inactive = no such curve, though single readings can be large or run the other way;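 note: the enzyme is Sfp with the accession as filed and its product quenches rhodamine fluorescence; potency is the fitted concentration of half-maximal effect; 0% = enzyme reaction without inhibitor and -100% = no enzyme wells; top concentration of the series not given in the record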
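Sfp 15 nM + cpd, 15 min RT; start w/ rhodamine-CoA 5 uM, BHQ-2-YbbR 12.5 uM (final); 50 mM Hepes pH 7.6, 10 mM MgCl2, 0.01% NP-40, 0.01% BSA; read 525/598 nm at 0 and 30 min.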
Starred values were filed as active, the others as inactive; i = inactive; ? = inconclusive; & = joins results of further samples. The list is partial. The share of hits here may be higher or lower than overall.

Second line of a record – TRPV1 PAM	Sfp inh
#1 Oc1ccccc1-c1cc(C(F)(F)F)[nH]n1
 : -9.8	14.3%
#2 O=C(NC(=S)Nc1cc(S(=O)(=O)N2CCOCC2)ccc1N1CCOCC1)C1CCCC1
 : 21.2	14.0%
#3 COc1cccc(OCCOCCNCCO)c1
 : -1.4	15.2%
#4 CCO[C@H]1OC(C(=O)O)=C[C@@H](C2CC2)[C@@H]1CCCO
 : -9.0	15.8%
#5 COC(=O)c1c(NC(=O)CN2CCC(C)CC2)c2c(C)cccc2n1C
 : -2.3	-5.8%
#6 Cc1ccc(S(=O)(=O)N(C(=N)N)c2nc(N(C)C)nc(N(C)C)n2)cc1
 : -1.2	-2.1%
#7 Cc1ccc(-n2c(SCC(=O)N3CCCC3)nc3c(c2=O)SCC3)cc1
 : -1.7	9.1%
#8 Cc1nc(NC(=O)COc2ccc(Cl)cc2)sc1C(=O)N(C)C
 : 11.9	-13.5%
#9 Cc1ccc2nc3c(cc(C#N)c(=O)n3CCN3CCOCC3)c(=O)n2c1
 : ?	1.3%
#10 CCOc1ccccc1NC(=O)c1c(NC(=O)CNCc2ccco2)sc2c1CCC2
 : 14.4	15.4%
#11 CCc1nc(SCC(=O)Nc2c(C)nn(C)c2C)c2cnn(-c3ccccc3)c2n1
 : -4.8	9.3%
#12 Nc1c(S(=O)(=O)c2cccc(Cl)c2)c2nc3ccccc3nc2n1/N=C/c1ccc(O)c(O)c1
 : -2.0	2.7%
#13 O=C(Nc1ccc(F)c([N+](=O)[O-])c1)c1ccc2c(c1)C(=O)OC2=O
 : 5.1	2.2%
#14 CC(NC(=O)c1cc(Br)ccc1Br)c1ccccc1 (stereo unspecified)
 : -2.2	2.8%
#15 Cc1nc(NC2=NCN(Cc3cccnc3)CN2)nc2c(C)cccc12
 : 8.5	-2.4%
#16 Cc1ccnc(SCCn2c(N3CCN(C)CC3)nc3c2c(=O)[nH]c(=O)n3C)n1
 : -3.7	1.1%
#17 c1ccc(CCCOCCC2CO2)cc1 (stereo unspecified)
 : -3.5	23.2%
#18 O=C(O)c1cc(-c2cc(C(=O)O)c3ccccc3n2)nc2ccccc12
 : -5.9	3.6%
#19 COc1ccc(S(=O)(=O)Oc2ccccc2C(=S)N2CCOCC2)cc1
 : 4.6	-19.5%
#20 CCOC(=O)c1c(NC(=O)/C=C/c2ccc3c(c2)OCO3)sc(C)c1C
 : 15.4	6.0%
#21 COc1ccc2c(c1)O[C@@H](c1ccc3c(c1)OCO3)[C@H](OC(=O)Nc1cc(OC)c(OC)c(OC)c1)C2=O
 : -1.3	9.5%&11.3%
#22 COC(=O)[C@@H]1CC[C@H](C)[C@@H](c2ccc(C)cc2)N1C(=O)c1ccc(/C=N/OCC[C@@H]2C=C[C@H](OC(C)=O)[C@@H](COC(C)=O)O2)cc1
 : 27.8	0.1%
#23 Clc1cccc(-c2cc3nc4c(c(N5CCNCC5)n3n2)CCCC4)c1
 : ?	25.3%
#24 COc1ccccc1/C=N/NC(=O)C1=NNC(c2ccccc2)(c2ccccc2)C1
 : -5.0	-0.4%
#25 CNCCCCOc1ccccc1Cc1ccccc1
 : -0.7	3.9%&6.3%
#26 CCCCCCn1c(=O)c(-c2nc3ccccc3c(=O)[nH]2)c(O)c2ccccc21
 : 6.1	-3.3%
#27 O=C(NCCOc1cccnc1)c1ccc(OC2CCN(Cc3ccccn3)CC2)cc1
 : -9.8	7.6%
#28 N=C1C(c2nc3ccccc3[nH]2)=C(O)CN1NC(=O)COc1cccc(F)c1
 : 2.6	9.2%
#29 Clc1ccc(-c2c[n+](Cc3ccc(Cl)c(Cl)c3)c3n2CCC3)cc1
 : 0.9	-10.3%
#30 COc1ccc(-n2nnc3c(SCC(=O)Nc4ccc5c(c4)OCCO5)ncnc32)cc1
 : 2.2	12.6µM*

In a second layout: results already given
entry | Compound | TRPV1 PAM | Sfp inh
22 | COC(=O)[C@@H]1CC[C@H](C)[C@@H](c2ccc(C)cc2)N1C(=O)c1ccc(/C=N/OCC[C@@H]2C=C[C@H](OC(C)=O)[C@@H](COC(C)=O)O2)cc1 | 27.8 | 0.1%
25 | CNCCCCOc1ccccc1Cc1ccccc1 | -0.7 | 3.9%&6.3%

The listing continues:
Second line of a record – TRPV1 PAM	Sfp inh
#31 Cc1ccc(-c2nc3c(c(=O)[nH]c(=O)n3Cc3ccccc3)n2C)s1
 : 16.5	12.2%
#32 CC(C)(C)c1ccc(/C=N/NC(=S)Nc2cccnc2)cc1
 : -3.5	1.7%
#33 Cc1ccc(C(=O)Nc2cc(Cl)ccc2OC(=O)c2ccc(C)cc2)cc1
 : -3.5	-16.5%
#34 COc1cc2nc(N(C)CCCNC(=O)C3CCCO3)nc(N)c2cc1OC (stereo unspecified)
 : 3.4	4.0%&2.0%
#35 Cc1cccc(NC(=O)C2CC(=O)NC(Nc3nc4ccccc4s3)=N2)c1 (stereo unspecified)
 : 4.2	20.8%
#36 CC1(C)CC(=O)C2=C(C1)O[C@@]1(c3ccsc3)Cc3cc(C#N)ccc3C2O1
 : i	-2.0%
#37 O=S(=O)(c1cccc(S(=O)(=O)N2CCC(N3CCCCC3)CC2)c1)N1CCOCC1
 : -4.2	10.1%
#38 COCCN1C(=O)C(=O)/C(=C(/O)c2ccc(S(=O)(=O)N3CCOCC3)cc2)C1c1ccc(C(C)C)cc1 (stereo unspecified)
 : 2.5	3.4%
#39 Cc1ccc(NC(=O)Cc2ccccc2)c(C)c1
 : 7.2	-10.4%
#40 Cc1ccc2c(c1)C1CCCC3C1N2CC(=O)N3Cc1ccccc1 (stereo unspecified)
 : -0.9	-5.9%

Four structures from above, ordered by number of heavy atoms, rising:
Second line of a record – TRPV1 PAM	Sfp inh
#31 Cc1ccc(-c2nc3c(c(=O)[nH]c(=O)n3Cc3ccccc3)n2C)s1
 : 16.5	12.2%
#33 Cc1ccc(C(=O)Nc2cc(Cl)ccc2OC(=O)c2ccc(C)cc2)cc1
 : -3.5	-16.5%
#34 COc1cc2nc(N(C)CCCNC(=O)C3CCCO3)nc(N)c2cc1OC (stereo unspecified)
 : 3.4	4.0%&2.0%
#16 Cc1ccnc(SCCn2c(N3CCN(C)CC3)nc3c2c(=O)[nH]c(=O)n3C)n1
 : -3.7	1.1%

(continued)
Second line of a record – TRPV1 PAM	Sfp inh
#41 O=C(C1=C(O)C(=O)N(CCCN2CCOCC2)C1c1ccncc1)c1cc2ccccc2o1 (stereo unspecified)
 : -4.9	4.3%
#42 c1ccc(-n2ncc3c(N4CCN(c5ccccn5)CC4)nc(N4CCOCC4)nc32)cc1
 : -10.3	19.1%
#43 COc1cc(NC(=O)c2ccc(C)c([N+](=O)[O-])c2)ccc1NC(=O)c1ccco1
 : -2.7	-2.8%
#44 CCOC(=O)c1cnc2cc(F)c(F)cc2c1N1CCN(C)CC1
 : -3.5	10.0%
#45 CN1CCc2c(sc(NC(=O)c3ccc4ccccc4c3)c2C(N)=O)C1
 : -11.6	-6.0%
#46 CCOC(=O)c1ccc2c(c1)nc(COc1ccccc1C#N)n2CC
 : -5.9	4.0%
#47 CC(=O)C1C(=O)c2c(cccc2[N+](=O)[O-])C1=Nc1ccccc1C (stereo unspecified)
 : -12.5	-5.7%
#48 Cc1ccccc1C1C2=C(Nc3[nH]n(-c4ccccc4)c(=O)c31)c1ccccc1C2=O (stereo unspecified)
 : 4.3	-10.4%
#49 COC(=O)c1cc2c([nH]c3ccccc32)c(C)n1
 : 7.9	-4.4%
#50 COc1ccc(OC)c(N/C(=N\c2nc(C)cc(C)n2)NC(=O)c2ccco2)c1
 : -16.2	13.0%

Arranged by value in Sfp inh (descending): 3 of the compounds above
No. | SMILES | Sfp inh
31 | Cc1ccc(-c2nc3c(c(=O)[nH]c(=O)n3Cc3ccccc3)n2C)s1 | 12.2%
7 | Cc1ccc(-n2c(SCC(=O)N3CCCC3)nc3c(c2=O)SCC3)cc1 | 9.1%
43 | COc1cc(NC(=O)c2ccc(C)c([N+](=O)[O-])c2)ccc1NC(=O)c1ccco1 | -2.8%

Other results follow:
Second line of a record – TRPV1 PAM	Sfp inh
#51 CCCn1c(C)cc(C(=O)CSc2nnc3n(CCC)c(=O)c4ccccc4n23)c1C
 : -1.0	0.3%
#52 O=C(CSc1ccc2nnc(-c3ccncc3)n2n1)N1CCc2ccccc21
 : -5.0	19.0%
#53 COc1cccc(/C=C2\SC(=S)N(NS(=O)(=O)c3ccc(C)cc3)C2=O)c1OC
 : -7.8	-8.3%
#54 CC1C/C=C/C=C/C=C/C=C/C(O[C@@H]2O[C@H](C)[C@@H](O)[C@H](N)[C@@H]2O)CC2OC(O)(CC(O)CC3OC3/C=C/C(=O)O1)CC(O)C2C(=O)O (stereo partly specified)
 : 12.9	-7.7%
#55 O=C1CCc2cc(S(=O)(=O)NC(Cc3ccccc3)C(=O)NC3CCCCC3)ccc2N1 (stereo unspecified)
 : -13.6	-6.0%
#56 CCn1ncc(Cl)c1C(=O)Nc1ccc2c(c1)CCC2
 : -18.4	-0.1%
#57 Cc1ccc(CNC(=O)/C(C#N)=C\c2ccc(N(C)C)cc2)cc1
 : 17.8	1.3%
#58 Cc1ccc2oc(=O)c3cc(C(=O)N4CCN(C(=O)c5ccco5)CC4)sc3c2c1
 : -3.6	-5.0%
#59 Cc1occc1-c1nnc(SCC(=O)N2CCN(c3ccccc3F)CC2)n1C
 : 3.3	-0.2%
#60 O=S(=O)(O)C1CCNCC1
 : 2.0	8.3%
#61 O=c1c2c3c(sc2n2cnnc2n1C1CCCCC1)CCC3
 : 13.9	18.5%
#62 O=C(CC(Sc1ccc(Br)cc1)C(=O)O)c1ccc(Br)cc1 (stereo unspecified)
 : 3.9	35.5µM*
#63 c1ccc2c(c1)nnn1c3ccccc3nc21
 : -0.6	14.4%
#64 CN(C)CCCNc1c2c(c(C#N)c3nc4ccccc4n13)CCC2
 : 0.2	12.1%
#65 Cn1c(=O)c2c(nc(N3CCN(Cc4ccccc4)CC3)n2CCSc2ncccn2)n(C)c1=O
 : -8.1	12.7%
#66 c1cc2c(cc1OCCNC1CCCC1)CCC2
 : 17.9	-24.1%
#67 CCOc1cccc(C2c3c(oc4ccccc4c3=O)C(=O)N2c2ccccn2)c1 (stereo unspecified)
 : -11.5	-1.1%
#68 Cc1cc(C(=O)COC(=O)c2ccc(Br)o2)c(C)n1Cc1ccco1
 : 3.1	4.3%
#69 C[n+]1nc(Nc2cccc3ccccc23)sc1-c1ccc(C(=O)O)cc1
 : 5.1	-16.1%
#70 Cc1ccc(CNc2ccc3c(c2)OCO3)c(C)c1
 : 4.4	?
#71 O=[N+]([O-])c1ccc2sc(SCc3nc4ccccn4c3Br)nc2c1
 : ?	6.2%
#72 Cc1nn(-c2ccccc2)c(Cl)c1/C=N/NC(=O)CNc1n[nH]c(=O)[nH]c1=O
 : -8.7	-3.6%
#73 CC1C(=O)CC(c2ccco2)NC1c1ccco1 (stereo unspecified)
 : -2.2	-9.5%
#74 O=C(NC1CCCCC1)c1ccc(S(=O)(=O)c2ccccc2Cl)c([N+](=O)[O-])c1
 : 18.8	-6.9%
#75 CC(C)(C)c1ccc(C(CC(=O)O)NC(=O)Cc2ccc(F)cc2)cc1 (stereo unspecified)
 : ?	19.1%
#76 Cc1nn(Cc2ccccc2Cl)c(C)c1NC(=O)CSc1n[nH]c(C)c1[N+](=O)[O-]
 : -10.0	8.9%
#77 O=C1CCCCCN1CP(=O)(O)CN1CCOCC1
 : -5.0	16.3%
#78 COc1cc(/C=C(\C#N)c2nc3c(s2)CCCC3)ccc1O
 : 3.9	-20.9%
#79 CN(C)c1ccc(/C=C(\C#N)C(=O)NCc2ccco2)cc1
 : 9.2	-3.6%
#80 Cn1c(=O)c2c(SCc3ccccc3)nc(-c3ccco3)nc2n(C)c1=O
 : 2.7	8.3%
#81 CCC(=O)N1C(=O)C2(Nc3ccccc3N2)c2ccccc21
 : 27.8	8.0%
#82 Cc1ccc2nc(Nc3nc(=O)c4ccccc4n3C)nc(C)c2c1
 : ?	-15.3%
#83 CCCCn1c(C)cc2c(c1=O)C1O[C@](c3ccsc3)(Cc3ccccc31)O2
 : i	0.1%
#84 COc1cccc(C(=O)CC(=O)C(=O)Nc2cc(OC)c(OC)c(OC)c2)c1
 : -4.4	-12.4%
#85 COc1ccc(CNC(=O)C/C(C)=N/NC(=O)c2cc(OC)cc(OC)c2)cc1
 : 22.7	10.0%

Compound profiles, from the list above. Order of screens: TRPV1 PAM | Sfp inh
Cc1ccccc1C1C2=C(Nc3[nH]n(-c4ccccc4)c(=O)c31)c1ccccc1C2=O (stereo unspecified) in the list: 4.3 | -10.4%
Cc1ccc(NC(=O)Cc2ccccc2)c(C)c1 in the list: 7.2 | -10.4%
Cc1ccc2oc(=O)c3cc(C(=O)N4CCN(C(=O)c5ccco5)CC4)sc3c2c1 in the list: -3.6 | -5.0%
